# B2AR ag: agonists of human beta-2 adrenergic receptor inducing internalization | P07550 | Am2.2-beta2AR cells, FAP receptor internalization, flow cytometry; reference of the scale not given here | response, % (test concentration not listed) | hit rate 0.43% among 340,000;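 active = response above a set limit, near 3 SD of response in nonfluorescent compounds, cut at about 42% in these data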;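 also: stock transfer was 100 nL into about 11 µL; a reference agonist was the positive control; negative values mostly stem from fluorescent compounds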
# Target sequence (P07550 whole entry, looked up): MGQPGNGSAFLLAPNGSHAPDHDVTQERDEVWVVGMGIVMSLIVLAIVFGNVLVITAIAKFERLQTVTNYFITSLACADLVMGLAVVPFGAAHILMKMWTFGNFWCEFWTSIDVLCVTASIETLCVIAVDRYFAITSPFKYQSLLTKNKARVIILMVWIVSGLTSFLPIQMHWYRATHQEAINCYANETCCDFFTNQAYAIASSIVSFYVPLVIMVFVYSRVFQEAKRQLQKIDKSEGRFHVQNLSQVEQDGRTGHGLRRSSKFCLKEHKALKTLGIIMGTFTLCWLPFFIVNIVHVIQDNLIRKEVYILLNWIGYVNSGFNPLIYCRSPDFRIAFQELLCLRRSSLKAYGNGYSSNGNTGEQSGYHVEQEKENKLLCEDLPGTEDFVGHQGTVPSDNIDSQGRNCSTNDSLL
# UCH37 inh: inhibitors of human deubiquitinating enzyme UCH37 | Q9Y5K5 | purified proteasome/UCH37, Ub-AMC cleavage fluorescence | inhibition, % (test concentration not listed) | hit rate 0.33% among 330,000;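 active = mean of two replicates above 20%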;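 also: 0% = compound-free wells with enzyme and 100% = wells lacking proteasome; stock transfer was 100 nL into about 20 µL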
# Target sequence (Q9Y5K5 whole entry, looked up): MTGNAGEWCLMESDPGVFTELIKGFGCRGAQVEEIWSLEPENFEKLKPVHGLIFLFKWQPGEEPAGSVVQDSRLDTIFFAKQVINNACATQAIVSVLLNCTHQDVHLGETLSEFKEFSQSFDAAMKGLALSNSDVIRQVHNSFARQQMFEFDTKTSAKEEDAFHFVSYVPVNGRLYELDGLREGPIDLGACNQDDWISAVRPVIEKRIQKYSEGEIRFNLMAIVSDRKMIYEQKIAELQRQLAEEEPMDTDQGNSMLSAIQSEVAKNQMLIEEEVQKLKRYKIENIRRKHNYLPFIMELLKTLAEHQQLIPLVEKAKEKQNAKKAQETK
#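 Material: Human UCH37 enzyme supplied as purified proteasome complex | Schedule: 30 min compound-proteasome preincubation then 25 min substrate reaction, room temperature | Detection: AMC fluorescence from Ub-AMC cleavage, excitation 355 nm, emission 460 nm | Benchmarks: Wells without proteasome as full block, compound-free enzyme plus substrate as uninhibited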
# LANA-H2A inh: blocks KSHV LANA binding to histone H2A/H2B; Q9QR71; cell-free LANA-H2A/H2B peptide, fluorescence polarization; inhibition, % (no concentration beside the values); hit rate 0.6% among 320,000; in the data active = inhibition mostly above about 10%, no sharp cut-off; inactive = mostly below about 6.7%;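 also: stock transfer was 7.5 nL into about 10 µL; 0% = median of vehicle wells and 100% = median of positive control wells; one replicate is shown; the record names a cut of 25% in any replicate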
# Beta cell apopt: beta cell apoptosis inhibition; INS-1E cytokine-induced death, ATP luminescence, 48 h; percent of positive-control rescue, neutral wells zero; protection from apoptosis, % (test concentration not listed); hit rate 0.8% among 300,000;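 active = all replicates at 75% or more, or half of them and the mean; inconclusive = half reach 75% but not the mean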;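 also: 0% = cytokine-treated negative control wells and 100% = positive control rescue; higher means more ATP so stronger rescue from cytokine killing; wells of about 40 µL received 100 nL stock; the first replicate is given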
# Calb FLC: C. albicans growth modulation with fluconazole; growth inhibition, % (no concentration beside the values); C. albicans CaCi-2 (fluconazole-resistant clinical isolate) + fluconazole, Alamar Blue growth, 48 h; AID 1979; hit rate 0.57% among 300,000;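 active = most replicates above 75%; inconclusive = exactly half above 75%; inactive = most below 75%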;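 also: all wells also contain fluconazole at 8 µg/ml as a sub-toxic cotreatment; 0% = median of DMSO wells and 100% = median of geldanamycin control wells; wells of about 8 µL received 7.5 nL stock; the first replicate is given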
# Bfl-1 A1 inh: inhibitors of the anti-apoptotic protein A1, read as caspase activation | caspase activation, % (no concentration beside the values) | MEF A1-2A-BIM cells, Caspase-Glo 3/7 luminescence, 3 h; percent of clofoctol response, vehicle zero | hit rate 0.066% among 330,000;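 active = over half of replicate activation scores above 10%, or exactly half above 10 with the replicate mean above 10; inconclusive = replicate mean below 10 yet half the replicates above 10; inactive = over half of replicates below 10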;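 also: wells of about 30 µL received 50 nL stock; many hits fall short of the cut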
# RanGTP-Imp inh: disruptors of Ran-importin-beta complex formation – biochemical, FRET, CFP-Ran, YFP-importin-beta, homogeneous, primary screen | hit rate 1.1% among 300,000 | cell-free CFP-Ran/YFP-importin-beta FRET ratio | inhibition, % (test concentration not listed) | AID 2216;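 active = most replicates above 15%; inconclusive = exactly half above 15%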;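 also: 0% = DMSO wells and 100% = Ran loaded with GDP instead of GTP; wells of about 40 µL received 100 nL stock; the first replicate is given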
# T cruzi repl: T. cruzi replication inhibition; T. cruzi beta-gal in NIH3T3, luminescence, 90 h; inhibition, % (no concentration beside the values); hit rate 1.4% among 300,000; AID 1885;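 active = mean inhibition across valid replicates above about 55%, limit read from the data; inconclusive = mean below that limit but half or more replicates reach it; inactive = mean below it, under half of replicates reach it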;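 also: signal also drops with host cell toxicity which is not excluded here; 0% = plate median of DMSO wells and 100% = zero luminescence signal; higher percent means less beta-gal luminescence so fewer parasites; stock transfer was 50 nL into about 50 µL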
# Starred values were filed as active, the others as inactive; i = inactive; ? = inconclusive; / = not tested or not shown.
# Each structure is followed by: B2AR ag, UCH37 inh, LANA-H2A inh, Beta cell apopt, Calb FLC, Bfl-1 A1 inh, RanGTP-Imp inh, T cruzi repl
CC1CN(C(=O)CCC(=O)NC(C)c2ccccc2)c2cc(Cl)ccc2O1 (stereo unspecified)
 : -9.2, 5.1, 2.4, -3.5, 4.6, 0.4, -3.0, -1.3
O=C(N/N=C/c1ccco1)c1ccccc1OCc1ccccc1Cl
 : -16.4, /, 2.3, 9.0, ?, 0.5, -0.8, 28.4
CCCOc1ccc(N/C=C/C(=O)c2ccc(OC)c(OC)c2)cc1
 : 0.0, /, -2.4, 2.5, -14.5, -1.0, -4.6, 11.9
Cc1c(/C=N/NC(N)=O)c2ccccn2c1C(=O)c1ccncc1
 : -7.1, /, 6.1, 4.0, 0.2, 1.0, ?, -0.7
COc1ccc([N+](=O)[O-])cc1/C=N/NC(=O)CNC(=O)C(c1ccccc1)c1ccccc1
 : -0.5, /, 8.1, 3.1, -15.1, -0.5, 0.6, 3.9
COC(=O)C1=C(C(=O)OC)[C@@H]2Nc3ccccc3[C@@]23C[C@@H](C(=O)OC)N(C(C)=O)C3=N1
 : 8.4, 2.9, 3.0, -4.9, -6.5, 3.0, ?, -4.1
O=c1c2ccccc2c(=O)n2n1Cc1ccccc1C2
 : -0.5, 0.0, 0.8, 0.0, -8.9, -1.8, 5.3, -2.1
CC(C)(C)C1CCC(=NNC(=O)c2ccccc2-n2cccc2)CC1 (stereo unspecified)
 : 6.4, 2.5, 0.9, 0.2, -2.0, -0.1, 1.6, 7.7
CCOC(=O)c1sc(NC(=O)c2ccccc2C(=O)O)c(C(=O)OCC)c1C
 : -0.7, 6.3, 0.3, 3.6, 3.4, 0.8, 5.6, -6.3
S=c1[nH]nc(-c2ccccc2Cl)n1/N=C/C=C/c1ccco1
 : 23.7, /, -6.6, 3.9, 39.5, -0.1, -0.3, -14.7
CCCCn1c(-c2cccs2)nc2nc3ccccc3nc21
 : -18.6, i, 1.7, 3.4, 2.1, 0.2, 2.8, 26.5
Cc1ccc(CN2CCN(CC(=O)N3CCC(C(N)=O)CC3)C2=O)cc1
 : -1.1, 5.3, /, /, -14.2, /, -3.6, 0.7
COc1ccc(CCNC(=O)CN2C(=O)c3ccccc3S2(=O)=O)cc1OC
 : 1.5, -1.2, -2.3, 5.6, -8.1, 0.5, 1.4, -8.2
COc1ccc(CNC(=O)COc2ccc(S(=O)(=O)N3CCCCC3)cc2)cc1
 : 2.9, 4.0, 3.0, -1.8, /, -0.4, /, 0.4
Oc1ccccc1C=Nc1cccc2ccccc12
 : -9.9, -29.3, -0.7, 1.2, 6.9, -0.8, 1.2, -4.9
CCOC(=O)/C=C1\SCC(=O)N1CC(=O)NCCOC
 : -0.8, -1.1, 1.6, -0.1, -7.0, 0.4, 1.1, -13.4
Nc1cc(=O)nc(SCC(=O)N2CCN(c3ccccc3)CC2)n1-c1ccc(F)cc1
 : -1.9, 3.6, 6.2, -2.1, 0.1, 0.4, 1.6, -26.8
Cc1cc(C)n(-c2ccc(NC(=O)C3CCCCN3C(=O)c3ccoc3C)cc2)n1 (stereo unspecified)
 : -1.4, 1.3, -2.6, -4.7, -8.4, 0.2, -1.5, -10.3
CC(=O)c1cccc(OCc2cc(C(=O)N(C)Cc3ccc(C)o3)no2)c1
 : -3.7, -0.3, -4.2, -5.2, 1.7, -0.1, ?, 5.2
CC(=O)c1cccc(NC(=O)CCNS(=O)(=O)c2cccc(C(C)=O)c2)c1
 : 14.5, 3.0, -5.2, -9.9, 0.2, 0.3, 2.9, -7.0
COCCNC(=O)C1CCCN(S(=O)(=O)c2cccc3nsnc23)C1 (stereo unspecified)
 : -2.6, 6.6, -9.2, -6.8, -0.6, -1.4, -0.2, -7.9
CC(C)c1ccc(S(=O)(=O)N2CCN(C(=O)C3=COCCO3)CC2)cc1
 : 7.3, 5.5, -1.1, 5.0, /, 0.1, /, /
COC(=O)[C@H](CC(C)C)NC(=O)N1CCN(c2cccc(C(F)(F)F)c2)CC1
 : 2.5, 3.2, -3.1, -6.5, 16.5, 0.0, 0.1, 4.0
c1ccc2c(SCc3cn4cccnc4n3)ncnc2c1
 : -9.8, -36.1, 2.0, 7.4, 13.3, 1.2, 3.3, -3.6
O=C(Oc1cccc2ccccc12)c1ccncc1
 : 2.1, 0.4, 1.9, 3.8, 11.5, -0.2, -0.9, -1.9
COc1cccc(C(=O)N(Cc2cc3cc(C)ccc3[nH]c2=O)C(C)C)c1
 : -0.4, -6.1, 0.5, 2.6, -1.0, -0.2, -1.0, 16.7
COc1ccc(S(=O)(=O)NCC2CCCN(Cc3ccccc3C)C2)cc1 (stereo unspecified)
 : -1.1, 6.2, 0.9, 1.9, -17.3, ?, -5.2, 21.3
Cc1cc(C)c(NC(=O)Cn2nnc(C(=O)Nc3ccc(F)cc3F)c2N)c(C)c1
 : -7.6, -0.5, 1.0, /, -7.4, 0.1, 1.7, -29.2
O=C(CCC(=O)Nc1ccc(Cl)cc1Cl)N/N=C/c1ccc([N+](=O)[O-])o1
 : /, /, 0.1, 107.4*, 101.5*, 0.4, 0.9, 59.9*
CCN(CCn1cccn1)C(=O)c1ccc(OC2CCN(C(=O)COC)CC2)cc1
 : 5.5, 2.6, 0.6, -5.9, -0.6, -0.6, 1.3, -2.2
COc1ccccc1CCNC(=O)CCNS(=O)(=O)c1ccc(NC(C)=O)cc1
 : 3.0, 0.7, 5.9, -2.2, /, 0.1, /, /
Cn1ccnc1C(=O)c1cc(SCC(=O)N2CCOCC2)nc2ccccc12
 : 6.0, 4.0, -1.6, -3.1, -4.2, -0.5, 5.6, 1.0
CCC(C)(C)C1CCc2[nH]nc(C(=O)NCCCNC(=O)OC(C)(C)C)c2C1 (stereo unspecified)
 : -9.3, 0.0, 4.5, -3.0, /, -1.2, /, /
CC(=O)c1cccc(N(CC(=O)Nc2ccc(F)cc2F)S(C)(=O)=O)c1
 : -7.0, 3.7, 1.0, -5.2, -4.1, -0.1, 0.2, -4.3
O=C(CSc1nnc(Cc2ccccc2)o1)NCCN1C(=O)CSC1=O
 : -5.7, 0.4, -1.4, -4.1, -18.2, 0.4, -1.3, -7.8
COc1ccc(OC)c(/C=N/NC(=O)c2ccc[n+](CC(=O)c3ccccc3)c2)c1
 : -3.2, /, 2.1, -5.1, /, 0.7, /, /
O=C(NC(=S)NN1CCCCC1c1cccnc1)c1ccc(Br)cc1 (stereo unspecified)
 : 4.5, 5.3, -0.2, -9.8, -23.4, 0.9, -1.7, 23.5
CCCNC(=O)c1c(CSc2ccccc2)noc1C(=O)NCc1ccccc1
 : -21.6, 3.6, -5.0, 23.6, 0.3, -0.4, 1.1, 24.9
C[C@H](NC(=O)N1CCC(Cc2ccccc2)CC1)C(=O)O
 : -9.9, -4.4, 4.3, -9.1, -0.9, 1.5, -2.6, 11.0
COc1ccc(F)c(CN2CCC(n3nccc3NC(=O)C3CCOC3)CC2)c1 (stereo unspecified)
 : -2.1, /, -7.7, -1.5, -3.6, 0.1, -2.3, 26.0
COc1ccc(C(=O)CCC(=O)N2CCN(c3ccc([N+](=O)[O-])cc3)CC2)cc1
 : 4.4, 5.2, 3.5, 3.9, -2.3, 1.2, 0.5, -5.0
CCOC(=O)C1(CCc2ccccc2)CCN(C(=O)c2ccoc2)CC1
 : -4.5, -0.4, 2.9, -6.0, ?, -0.1, -1.2, 3.0
CCc1ccccc1NC(=O)CSc1nnc(-c2cc(C)[nH]n2)n1N
 : -2.4, 2.0, 5.1, -1.8, 26.5, 0.5, 0.1, -1.2
Cc1ccc(NC(=O)CN2C(=O)NC3(CCCc4ccccc43)C2=O)c([N+](=O)[O-])c1 (stereo unspecified)
 : -6.8, 4.0, -3.3, -2.9, -8.9, 0.2, 4.9, 2.5
Cc1cccc(Nc2nnc(SCC(=O)NCc3cccs3)s2)c1C
 : -4.9, 4.2, -3.0, -7.5, 3.9, -0.3, -2.1, 9.1
CC(OC(=O)CCN1C(=O)c2cccc([N+](=O)[O-])c2C1=O)C(=O)Nc1cc(Cl)cc(Cl)c1 (stereo unspecified)
 : -2.1, -0.1, 1.0, -6.9, -3.6, 0.3, -2.7, -6.5
O=C(CN1CCN(Cc2ccccc2)C1=O)NCc1ccc(Cl)cc1
 : -4.0, 4.6, 4.3, 5.6, 8.3, 0.3, 1.0, 0.4
O=C(CCn1c(=O)c2sccc2n(CC(=O)OCc2ccccc2)c1=O)NCc1ccccc1
 : -1.1, 2.0, -0.9, -3.8, 1.2, 0.7, 0.1, 4.0
Cc1ccc(C(=O)CC2C(=O)N(c3ccccc3)C(=S)N2c2ccccc2)cc1 (stereo unspecified)
 : -7.3, 2.7, -1.6, -5.9, -10.0, -0.3, 1.2, 0.0
CCCc1cc(=O)[nH]c(NCCc2ccccc2)n1
 : 3.3, 4.0, 1.7, -5.8, -1.5, 1.2, -3.5, -5.6
N#CCc1nn(-c2ccc(F)cc2)c(N)c1C#N
 : -6.8, -1.3, 1.0, /, -14.0, 0.8, 3.3, -4.1
CC1CCN(c2nc3nonc3nc2Nc2ccc(F)cc2)CC1
 : 3.8, 6.6, -7.1, 7.2, -4.6, -0.6, 1.5, -3.8
Cc1cc(NC(=O)c2ccoc2C)no1
 : -15.8, 1.0, -2.7, 1.0, -0.9, -6.3, 6.4, -2.6
CCCN1C(=O)c2cc(C(=O)NCCc3cccc(C)c3)ccc2C1O (stereo unspecified)
 : 7.5, 4.5, -3.1, /, 4.4, 0.9, -1.6, -2.2
COc1cc(OC)cc(C(=O)NCCCN2CCOCC2)c1
 : 1.5, -0.1, -0.9, 4.5, 2.6, 0.3, 7.0, -5.2
Nc1nc2c(C(=O)N3CCOCC3)nnn2c2ccccc12
 : 4.4, -357.9, -0.8, -2.2, -7.3, -1.7, -14.1, -9.5
Cn1nc(CC(=O)Nc2cccc3ncccc23)c2ccccc2c1=O
 : -1.7, 0.1, -2.0, /, 0.8, 0.0, 0.0, 7.4

# Arranged by length of the SMILES (ascending): 3 of the compounds above.
# Each structure is followed by: B2AR ag, UCH37 inh, LANA-H2A inh, Beta cell apopt, Calb FLC, Bfl-1 A1 inh, RanGTP-Imp inh, T cruzi repl
N#CCc1nn(-c2ccc(F)cc2)c(N)c1C#N
 : -6.8, -1.3, 1.0, /, -14.0, 0.8, 3.3, -4.1
Cc1ccc(C(=O)CC2C(=O)N(c3ccccc3)C(=S)N2c2ccccc2)cc1 (stereo unspecified)
 : -7.3, 2.7, -1.6, -5.9, -10.0, -0.3, 1.2, 0.0
CC(OC(=O)CCN1C(=O)c2cccc([N+](=O)[O-])c2C1=O)C(=O)Nc1cc(Cl)cc(Cl)c1 (stereo unspecified)
 : -2.1, -0.1, 1.0, -6.9, -3.6, 0.3, -2.7, -6.5

# One compound at a time (already shown). Values in the order: B2AR ag, UCH37 inh, LANA-H2A inh, Beta cell apopt, Calb FLC, Bfl-1 A1 inh, RanGTP-Imp inh, T cruzi repl
# `COc1ccc(C(=O)CCC(=O)N2CCN(c3ccc([N+](=O)[O-])cc3)CC2)cc1` is entered as 4.4, 5.2, 3.5, 3.9, -2.3, 1.2, 0.5, -5.0
# `Cc1cccc(Nc2nnc(SCC(=O)NCc3cccs3)s2)c1C` is entered as -4.9, 4.2, -3.0, -7.5, 3.9, -0.3, -2.1, 9.1

# Screening data: PubChem, several laboratories
